Vaccinia Venus – vaccinia inhibition (Venus reporter); Vaccinia virus Venus reporter expression, fluorescence; Potency, µM (doses to about 36.5 µM), for the others: at the highest dose activity change, negative = inhibition, hits mostly inhibitors; 0.46% of 330,000 active; AID 720580; active means well fitted inhibition curve with a large enough effect; inconclusive means small, poorly fitted or top-dose-only effect; inactive means no such curve, though single readings can be large or run the other way; tested in A549 cells; also: nearly all actives have a fitted effect of over 30% in size; inactives centre near -10
VACV mCherry inh – inhibitors of vaccinia virus infection (mCherry reporter signal); 0.63% of 310,000 active; Vaccinia virus mCherry reporter infection, fluorescence; about a quarter of the inactives have no number; Potency, µM (highest dose often 36.5 µM), without a hit: at the highest dose activity change, negative = inhibition, hits mostly inhibitors; active = well fitted inhibition curve with a large enough effect; inconclusive = small, poorly fitted or top-dose-only effect; inactive = no such curve, though single readings can be large or run the other way; tested in A549 cells; also: nearly all actives have a fitted effect of over 35% in size; inactives centre near -10
The depositor's hits bear a star; i = inactive; ? = inconclusive; nt = no result given; & = joins results of further samples; [ ] = remark or other dose. % is scaled to controls: 0 for no effect and ±100 for the full control effect; potency is read from the fitted curve at half-maximal effect.

structure,VACV mCherry inh,Vaccinia Venus
O=C(CSc1cn(CCNC(=O)c2ccccc2F)c2ccccc12)Nc1ccccc1F,-2%,-9%
CCCCn1c(=O)nc2n(-c3ccc(C)cc3)c3ccccc3cc-2c1=O,-6%,0%
O=C(Cc1ccccc1)Nc1nc(=O)c2ccccc2s1,-15%,-12%
O=[N+]([O-])c1cc([N+](=O)[O-])c(Oc2cccnc2Br)cc1NN1CCCCC1,13µM*,?
CC(C)(C)c1ccc(CSc2nc3c(c(=O)[nH]2)CCCC3)cc1,-7%,-12%
COc1ccc(NC(=O)NNC(=O)COc2cc(C)c(Cl)c(C)c2)c(OC)c1,-15%,-6%
CCCS(=O)(=O)NC(=O)C1(C)CCCN(C(=O)c2c(-c3ccccc3)noc2C)C1 (configuration not stated),0%,-4%
Cc1noc(C)c1COc1ccc(C(=O)Nc2ncccc2O)cc1,-27%,-12%
O=c1nc(Nc2ccc(OCc3ccccc3)cc2)sc2ncccc12,0.79µM*,6%
CCOC(=O)C1(Cc2cccc(OC)c2)CCN(Cc2cccnc2)CC1,i,1%
COc1ccc(Cl)cc1NC(=O)NNC(=O)C(=O)Nc1ccc(F)cc1,-6%,-9%
COc1cccc(-n2nnc(-c3nc(-c4cccs4)no3)c2N)c1,-5%,-6%
CCOC(=O)C(CC)Sc1ccc2nnc(CCNS(=O)(=O)c3ccccc3)n2n1 (configuration not stated),i,7%
CCOC(=O)c1cc2ccc3ccccc3c2s1,-22%,-21%
O=C(/C=C/c1ccccc1)c1ccc(O)cc1,?,?
Cc1ccc(C(=O)c2c[nH]c3c(F)cc(F)cc3c2=O)cc1,-15%,-2%
C#CCNC(=O)C1=C[C@H](c2ccc(C(F)(F)F)cc2)C[C@H](OCc2ccc(CO)cc2)O1,i,-18%
Cc1ccc(CN2CCC(n3nccc3NC(=O)C3CCOC3)CC2)cc1C (configuration not stated),i,-4%
COc1ccc(-c2cc(C(=O)N3CCN(c4ccccc4O)CC3)c3ccccc3n2)cc1OC,?,?
CCN1CCc2c(OCc3ccc(C(=O)OC)o3)cccc2C1=O,5%,5%
CC/C(=C/c1ccccc1)c1cccc2[nH]c3c(OC)cccc3c12,?,-14%
COc1ccc(NS(=O)(=O)c2ccc(N3CCCC3)c(N)c2)cc1,?,-7%
CC(=O)Nc1ccc(NC(=O)CSc2nc3ccccc3nc2N2CCC(C)CC2)cc1,-30%&-2%,-14%&-9%
CCOC(=O)C1=C(CNC(C)(C)CC(C)(C)C)NC(=O)NC1c1cccc([N+](=O)[O-])c1 (configuration not stated),?,-26%
COCCn1c(C)cc(C2=NNC(=Nc3ccc(F)cc3)SC2)c1C,-16%,2%
CCOC(=O)C1CCCN(c2cc(=O)n(-c3ccccc3Cl)c(=O)[nH]2)C1 (configuration not stated),-13%,1%
CCOC(=O)C1=C(C)NC(=O)C(C(N)=O)C12CCCCC2 (configuration not stated),-15%,-6%
CCOC(=O)c1c(NC(=O)COc2ccc(C)cc2C(C)(C)C)sc2c1CCC(C)C2 (configuration not stated),68%[activator],-7%
CN(C)c1ccc(/C=C/c2c[n+](C)cc3ccccc23)cc1,?,?
CCCC(=O)NC(C)c1nc2ccccc2n1C(C)C (configuration not stated),-16%,3%
O=C(Nc1c(-c2ccccc2)nc2ccccn12)c1cccs1,-23%,-3%
Cc1cc(SCC(=O)N/N=C/c2ccc(O)c(O)c2O)c(C)cc1Br,13µM*,?
C[C@@H]1CN([C@H](C)CO)C(=O)CCCn2nncc2CO[C@@H]1CN(C)S(=O)(=O)c1cccs1,i,-13%
O=C1/C(=C/c2ccc(C(=O)O)cc2)CCC/C1=C\c1ccc(C(=O)O)cc1,i,-3%
Cc1ccc(C(=O)N/C(=C/c2ccc(-c3ccc(Br)cc3)o2)C(=O)NC2CCS(=O)(=O)C2)cc1 (configuration not stated),i,-4%
CCOc1ccc(NC(=O)C(C)SC(N)=O)cc1 (configuration not stated),-12%,-15%
CNc1c(Br)cc(/C=C2\C=Cc3ccccc32)cc1Br,-5%,3%
COc1ccc(CCNc2nc3c(-c4cccc(C)c4)nnn3c3ccccc23)cc1OC,1%,-6%
CCSCCOC(=O)C1=C(C)NC2=C(C(=O)CCC2)C1c1coc2ccccc2c1=O (configuration not stated),nt,24%
COc1ccccc1-c1csc(C(C)(O)c2cccc(F)c2)n1 (configuration not stated),i,-3%
Cc1nc2nc(-c3cccnc3)[nH]n2c(=O)c1C,nt,-8%
CCc1ccc2occ(CC(=O)Nc3c(C(=O)c4ccccc4)oc4ccccc34)c2c1,-7%,-8%
Cc1cc(OCC(F)(F)C(F)(F)C(F)(F)C(F)(F)C(F)(F)C(F)F)nc(N)n1,-7%,-4%
Cc1cc(C)c(-c2noc(C(=O)OC(C)(C)C)c2C(=O)OC(C)(C)C)c(C)c1,-4%,-2%
CC(C)CCn1c(SCc2cccc(F)c2)nc2ccsc2c1=O,1%,-8%

Exported with values under each structure: 3 of the compounds above
Values run as follows: VACV mCherry inh, Vaccinia Venus
> COc1ccccc1-c1csc(C(C)(O)c2cccc(F)c2)n1 (configuration not stated)
 : i, -3%
> CCOc1ccc(NC(=O)C(C)SC(N)=O)cc1 (configuration not stated)
 : -12%, -15%
> CCc1ccc2occ(CC(=O)Nc3c(C(=O)c4ccccc4)oc4ccccc34)c2c1
 : -7%, -8%

Further results.
structure,VACV mCherry inh,Vaccinia Venus
Cc1cccc(OCC(=O)OC2CCN(C)CC2)c1,nt,7%
Cc1ccc(C(=O)CSc2nnc3c4ccccc4nc(Cc4ccccc4)n23)cc1,i,-2%
NC(c1ccc(F)c(F)c1)c1nc(-c2ccc3ccccc3c2)cs1 (configuration not stated),?,3%
O=C(COC(=O)c1cccc(Br)c1)Nc1cccc2c1C(=O)c1ccccc1C2=O,-8%,4%
C#CCCOC(=O)N1C2=NC(C(=O)OC)=C(C(=O)OC)[C@@H]3N(C)c4ccccc4[C@]23C[C@H]1C(=O)OC,?,-29%
CSCC[C@@H](CO)NC(=O)[C@H]1O[C@@H](n2ccc(N)nc2=O)[C@H](O)[C@@H]1O,i,0%
C#CCO[C@@H]1C[C@H](n2ccc(NC(=O)c3ccccc3)nc2=O)O[C@@H]1CO,?,-2%
COC(=O)c1ccc(NC(=O)CSc2ccccc2)cc1,-1%,-9%
CC1CC(C)CN(c2nc3c(c(=O)n(C)c(=O)n3C)n2CCSc2nc3ccccc3o2)C1 (configuration not stated),8%,4%
CCCCc1ccc(-c2ccc(Br)cc2)nc1,-11%,-7%
CC(=O)C[C@@H](O)CC(=O)[C@@H]1OC(=O)CC/C=C\Cc2ccccc21,-15%,-11%
O=C(c1ccc(N2CCOCC2)c([N+](=O)[O-])c1)N1CCN(Cc2ccccc2)CC1,?,-9%
CC(=O)c1c(C)oc2c1cc(NS(=O)(=O)c1ccc(C(C)(C)C)cc1)c1ccccc12,-15%,-9%
CCn1nnnc1NCc1ccc(OCc2ccc(F)cc2Cl)c(OC)c1,?,-13%
COc1ccc(N2CCN(C(=O)CCNS(=O)(=O)c3ccccc3)CC2)cc1,1%,1%
O=C(Nc1nccs1)c1ccc(COc2ccccc2Br)o1,-30%,?
O=C(CSCCN1C(=O)c2ccccc2C1=O)Nc1ccc2ccccc2c1,-13%,-15%
Cc1cc(-n2ccnc2)n2c(nc3ccccc32)c1C#N,-5%,1%
Cc1ccc([C@@H]2C[C@H]3[C@@H](CN2S(=O)(=O)c2ccc(Cl)cc2)C(=O)C[C@@H](c2cccc4ccccc24)N3S(=O)(=O)c2ccc(C)cc2)cc1,i,-16%
COc1cc(NC(=O)COC(=O)/C=C/c2ccc(O)c(OC)c2)cc(OC)c1,-10%,-14%
COc1cc(CC(=O)Nc2nc(C)cs2)cc(OC)c1OC,i,-8%
Cc1ccc(NC(=O)c2ccc3snnc3c2)cc1,i,-16%
COc1ccc(CCC(=O)Nc2c(-c3ccc(N(C)C)cc3)[nH][nH]c2=O)cc1,26%,-9%
COc1c(C)cc(NC(=O)c2ccc3c(c2)NC(=O)CO3)cc1C,-21%,-7%
Nc1nonc1-n1nnc(C(=O)N/N=C/c2cccc(Cl)c2)c1-c1ccc2c(c1)OCO2,i,-9%
C/C(=N/NC(=O)CN1CCN(S(=O)(=O)c2ccc(Br)cc2)CC1)c1cccnc1,-15%,-12%
CC1(C)Cc2cccc(OCC(=O)NCc3ccc(F)cc3)c2O1,-13%,-10%
Cn1c(C(=O)NCc2ccccc2F)cc2oc3ccccc3c21,?,11%
CSCCC(C(=O)OCC(=O)c1ccc(C)c(C)c1)N1C(=O)c2ccccc2C1=O (configuration not stated),i,-22%
COc1ccc(NC(=S)N/N=C2/CCCc3c(C)cc(C)cc32)cc1,-10%,-10%
CC(=O)Nc1ccc2nc(SCCOc3ccccc3Cl)sc2c1,?,-20%
COc1cc(C2C(C#N)=C(N)N(Nc3ccccc3)C3=C2C(=O)CC(C)(C)C3)ccc1OCc1cccc(F)c1 (configuration not stated),nt,?
Cc1ccc(S(=O)(=O)C2(C(=O)Nc3cccc(F)c3)CC2)cc1,i,-2%
Cc1sc(NC(=O)C(C)C)c(C(=O)Nc2ccccc2)c1C,i,-2%
COc1ccc(S(=O)(=O)N2CCC[C@H]2C(=O)N2CCC[C@H]2C(=O)NCc2ccc(F)cc2F)cc1C,26%,-5%
Cc1ccc(S(=O)(=O)n2cc(-c3ccccc3)c3ccccc32)cc1,?,?
O=C(CSc1nc2c(cnn2-c2ccc(F)cc2)c(=O)[nH]1)Nc1ccccc1C(F)(F)F,-9%,-4%
COC(=O)c1ccc(NC(=O)CCN2CCCCC2)cc1,nt,-24%
C=CCOc1cccc(C2/C(=C(/O)c3ccc(F)cc3)C(=O)C(=O)N2CCN2CCOCC2)c1 (configuration not stated),-5%,-3%
CN(C)C(/C=C/Nc1ccc([N+](=O)[O-])cc1)=C(C#N)C#N,i,-4%
Cc1ccc2nc(-c3ccccc3O)c(Nc3ccccc3C)n2c1,?,?
CCC(C)N1C(=O)S/C(=C/c2ccc3c(c2)n(C)c(=O)n3C)C1=O (configuration not stated),-6%,-17%
COC(=O)C(C)n1cnc2c(nnn2Cc2ccc(Cl)cc2)c1=O (configuration not stated),-5%,-7%
CC(Oc1cc2oc(=O)c3c(c2cc1Cl)CCCC3)C(=O)NCc1cccnc1 (configuration not stated),-14%,-17%
O=C(NCCCN1CCCC1)c1cc2c(Cl)nc3ccccc3c2s1,i,?
C=CCC[C@@H](Cc1ccc(F)cc1)C(=O)OC[C@@H](Cc1ccccc1)NC(=O)[C@H](CC=C)CC(=O)NCCO,-3%,?
Cc1ccccc1CN1CCC(CNC(=O)c2c(C)oc3ncnc(N4CCCCC4)c23)CC1,-15%,-14%
COc1ccc(CNC(=O)N2CCN(c3ccccc3OC)CC2)cc1,0%,-3%
CC(C)(C)C(=O)[C@@H]1[C@@H]2C(=O)N(c3ccc4c(c3)OCCO4)C(=O)[C@@H]2C2c3ccccc3C=CN21 (some centres not stated),nt,2%
COc1ccc([C@H]2CC(=O)C=C(c3ccc(CNC(=O)OC(C)(C)C)cc3)C2)cc1,?,?
Cc1ccc(S(=O)(=O)N2CCN(c3cnn(-c4ccccc4)c(=O)c3Cl)CC2)cc1,i,0%
O=C(c1cnc(N2CCCCC2)c2ccccc12)N1CCN(c2ccc(F)cc2)CC1,-18%,-15%
CCOP(=O)(OCC)C(NC(=O)Cc1ccccc1)C(Cl)(Cl)Cl (configuration not stated),i,-10%
COc1cccc(CN2CCNC(=O)C2CC(=O)N(Cc2cnn(C)c2)C(C)C)c1 (configuration not stated),-10%,-3%
O=C(O)c1ccc(CN2CCOCC2)o1,i,-8%
CC(NC(=O)c1cc(=O)[nH]c2ccccc12)c1ccccc1 (configuration not stated),10%,3%
CCC1CCCCN1CCCNC(=O)c1ccc2c(c1)N(Cc1ccccc1F)C(=O)c1ccccc1S2(=O)=O (configuration not stated),-28%,?
CCCc1c(C(=O)N/N=C/c2ccc3c(c2)OCO3)nnn1-c1nonc1N,-3%,-24%
Cc1nnc(N2CCCCC2)c2ccccc12,nt,-25%
CC(=O)c1ccc(NS(=O)(=O)c2cc3[nH]c(=O)c(=O)[nH]c3cc2C)cc1,-13%,-8%
Cc1cc(=O)[nH]c(N2CCN(C(=O)c3ccco3)CC2)n1,i,-12%
COc1cc(/C=N/NC(=O)C(C)Nc2n[nH]c(=O)[nH]c2=O)ccc1O (configuration not stated),-16%,1%
Cc1ccc(C)c(NC(=O)C(Cc2ccccc2)N2Cc3ccccc3C2=O)c1 (configuration not stated),-15%,-6%

Pulled by structure from above (4):
structure,VACV mCherry inh,Vaccinia Venus
Cc1ccc(C)c(NC(=O)C(Cc2ccccc2)N2Cc3ccccc3C2=O)c1 (configuration not stated),-15%,-6%
C#CCCOC(=O)N1C2=NC(C(=O)OC)=C(C(=O)OC)[C@@H]3N(C)c4ccccc4[C@]23C[C@H]1C(=O)OC,?,-29%
CCN1CCc2c(OCc3ccc(C(=O)OC)o3)cccc2C1=O,5%,5%
O=C(/C=C/c1ccccc1)c1ccc(O)cc1,?,?

Assay outcomes as filed in PubChem BioAssay.
